nsP2pro inh: blocks chikungunya virus nsP2 protease peptide cleavage | 31,000 tested, 1.1% active | Potency, µM (series often up to 24.9 µM), for the others: top-dose activity change, negative = inhibition, hits mostly inhibitors | FRET peptide cleavage, nsP2pro, fluorescence 1 h; active means well fitted inhibition curve with a large enough effect; inconclusive means small, poorly fitted or top-dose-only effect; inactive means no such curve, though single readings can be large or run the other way; note: nearly all actives have a fitted effect of over 60% in size; a reference inhibitor and vehicle were the controls
* = called active by the depositor; i = inactive; u = inconclusive; & = joins results of further samples; ! = repeats disagree; [ ] = dose if it differs, or a comment. % is set by controls: 0 for no effect and ±100 for the full control effect; potency is the fitted concentration of half-maximal effect. This is a subset; rates above refer to the full screens.

No.	SMILES	nsP2pro inh
1	CC(=O)N1CCC2(C1)N=C(c1ccccn1)C(=O)N2 (stereo unspecified)	3%[39.2 µM]
2	CC(C)N(CCC(C(N)=O)(c1ccccc1)c1ccccn1)C(C)C (stereo unspecified)	-8%&11%
3	COc1ccc(C(=O)N2CCc3onc(-c4ccc(C(F)(F)F)cc4)c3C2)o1	19%
4	Cc1ccc(Cl)cc1N1CCN(C(c2ccc(F)cc2)c2nnc(-c3ccccc3)o2)CC1 (stereo unspecified)	28%
5	COc1ccccc1CNc1nc2ccccc2c2nc(-c3cccnc3)nn12	-12%
6	COc1ccc(C2=C(C)C(=O)N(Cc3ccc(C(=O)Nc4cc(C)ccc4C)cc3)S2(=O)=O)cc1	-5%
7	Cc1c(Cl)cccc1-n1ncc(C(=O)N2CCN(c3ncccn3)CC2)c1C1CCN(C(=O)OC(C)(C)C)CC1	-17%
8	CC1C(=O)Nc2ccc(S(=O)(=O)N3CCCCC3)cc2NC1=O (stereo unspecified)	-13%
9	CCOC(=O)c1cc2c(=O)n3ccccc3nc2n(CCCOC)c1=NC(=O)C(C)Oc1ccccc1 (stereo unspecified)	-15%
10	CC(C)c1ccccc1-c1ncc(F)c(NC(C)(C)c2ccc(-c3cccnc3)cc2)n1	-4%
11	CCOc1ccc2c(c1)NC(c1cccs1)=NC(c1ccc(F)cc1)=N2	0%
12	O=C(Nc1ccc(-c2nc3ccccc3[nH]2)cc1)Nc1ccc2c(c1)CCCO2	i
13	O=C1CC2CCN([S+](=O)([O-])c3cccs3)CC2CCN1 (stereo unspecified)	-3%
14	COc1ccccc1N1CCN(c2nc3ccc(C(=O)c4ccccc4)cc3n3c(C)nnc23)CC1	-18%
15	COc1ccc(C)cc1NS(=O)(=O)c1ccc2c(c1)CCCN2C(C)=O	6%
16	CC(C)C[C@@H](N)C(=O)N[C@H]1C(=O)N[C@@H](CC(N)=O)C(=O)N[C@H]2C(=O)N[C@H]3C(=O)N[C@H](C(=O)N[C@H](C(=O)O)c4cc(O)cc(O)c4-c4cc3ccc4O)[C@H](O)c3ccc(c(Cl)c3)Oc3cc2cc(c3O[C@@H]2O[C@H](CO)[C@@H](O)[C@H](O)[C@H]2O[C@H]2C[C@](C)(N)[C@H](O)[C@H](C)O2)Oc2ccc(cc2Cl)[C@H]1O	-13%[10 µM]
17	O=C(NCc1ccc(F)cc1)c1nc2sccn2c1Br	-9%
18	COc1cc(C(O)C2COC(c3ccc(OC4OC(CO)C(O)C(O)C4O)c(OC)c3)C2CO)ccc1O (stereo unspecified)	25%[10 µM]
19	COCCNC(=O)NC[C@H]1O[C@@H]2C[C@@H](CC(=O)N3CCC(F)(F)C3)O[C@@H]2[C@@H]1O	-4%[39.2 µM]
20	CC1(C)[C@@H](O)CC[C@]2(C)[C@H]3C(=O)C=C4[C@@H]5C[C@@](C)(C(=O)O)CC[C@]5(C)CC[C@@]4(C)[C@]3(C)CC[C@@H]12	u
21	Cn1nnnc1Sc1ncnc2scc(-c3ccc(C(F)(F)F)cc3)c12	i
22	O=C(Nc1ccc(C(=O)Nc2nccs2)cc1)c1ccc2ccccc2c1	4%
23	O=C(CSc1nc(O)c(C/C=C/c2ccccc2)c(=O)[nH]1)Nc1cccc(F)c1	-18%
24	CC(=O)O[C@H]1C[C@@H]2CC[C@H]3[C@H]4C[C@H]([N+]5(C)CCCCC5)[C@@H](OC(C)=O)[C@@]4(C)CC[C@@H]3[C@@]2(C)C[C@H]1[N+]1(C)CCCCC1	-2%
25	Cc1ccc(NC(=O)c2cc3c(s2)CN(C2CC2)C3)cc1	-16%
26	C#CCSc1nc2sc3c(c2c(=O)n1Cc1ccccc1)CCCC3	-11%
27	CCCCN(C)S(=O)(=O)c1ccc(NC2=NS(=O)(=O)c3ccccc32)cc1	-21%
28	O=C(O)c1cccc(-n2cccc2/C=C2/NC(=O)N(c3cccc(Cl)c3)C2=O)c1	i
29	CCCCC(=O)O	-4%
30	CCn1c(=O)cc(OCC(=O)N2CCN(c3cccc(Cl)c3)CC2)c2ccccc21	-15%
31	O=c1c2[nH]c3cc(Br)sc3c2cnn1Cc1ccccc1F	-2%
32	CNC(=O)[C@@H]1C[C@H](n2cc(-c3ccc(CN4CC[C@@H](O)C4)cc3)nn2)CN1	-11%
33	CCN[C@@H]1C[C@H](N)[C@@H](O[C@H]2OC(CN)=CC[C@H]2N)[C@H](O)[C@H]1O[C@H]1OC[C@](C)(O)[C@H](NC)[C@H]1O	10%
34	Cc1cc(F)ccc1NC(=O)Cn1cc(S(=O)(=O)NC(C)C)c(S(=O)(=O)NC(C)C)c1	-22%
35	Cc1nc(Nc2cnn(C3CCNCC3)c2)nc2c1N(C)C(=O)c1cc3ccccc3cc1N2C	84%[activator]
36	CC(C)c1noc(-c2cn(C3CCN(C(=O)C4(c5ccccc5)CC4)CC3)nn2)n1	i
37	COC(=O)[C@]1(Cc2ccc(O)c(CC=C(C)C)c2)OC(=O)C(O)=C1c1ccc(O)cc1	6%[10 µM]
38	COc1ccc(-c2nc(C)c(CCNC(=O)c3cccs3)s2)cc1	-9%
39	CNC(=O)[C@@H]1C[C@@H](O)CN1C1CCN(C(=O)C2(c3ccccc3)CC2)CC1	-8%
40	COc1cccc(NC(=O)CSc2nc3ccc(NC(=O)c4cccs4)cc3s2)c1	u
41	COc1cccc(C(=O)N2CCCCC2c2nc(-c3cnccn3)n[nH]2)c1 (stereo unspecified)	-6%
42	Cc1cccc(Nc2nc(C)nc(N)c2S(=O)(=O)c2ccccc2)c1	6%
43	CCOC(=O)/C=C(C)/C=C/C=C(C)/C=C/c1c(C)cc(OC)c(C)c1C	-10%
44	CC1Cc2ccccc2N1C(=O)CSc1nnc(-c2cccc(Cl)c2)o1 (stereo unspecified)	-11%
45	Fc1ccccc1N1CCN(c2ncc3c(n2)CCN(Cc2ccc(Br)s2)C3)CC1	2%
46	C#CC(O)(C=CCl)CC (stereo unspecified)	-3%
47	CCCCCCCN(CC)CCCC(O)c1ccc(NS(C)(=O)=O)cc1 (stereo unspecified)	-5%
48	CCCCC(=O)Nc1cccc(-c2nc3ccccc3s2)c1	-16%
49	Nc1ccc(NC(=O)c2cccc(C(=O)Nc3ccc(N)cc3Cl)c2)c(Cl)c1	-15%
50	Cc1cc(C)nc(NC(=S)N2CCN(c3nccc4ccccc34)CC2)c1	-7%
51	Cc1cnc(C2CC2)n1C1CCN(C(=O)C2CC2)CC1	1%
52	COc1cc2ncnc(N(C)Cc3cccs3)c2cc1-c1ccc2c(c1)OCO2	4%
53	COc1cc2nc(NCCc3ccccc3)n3nc(-c4cccnc4)nc3c2cc1OC	-11%
54	COc1ccc(Cn2ccnc2SCC(=O)Nc2nnc(C)s2)cc1	-10%
55	COc1nc2nc(CC3CC3)n(C)c2cc1-c1ccc(O)c(F)c1	u
56	COc1ccc(CCCN2C(=O)O[C@@H]3CN(S(=O)(=O)N(C)C)C[C@@H]32)cc1	1%
57	Cc1cccc(CNc2nc(-c3ccccc3C(F)(F)F)nc3ccccc23)c1	2%
58	COc1cccc(CNC(=O)[C@@H]2C[C@@H](O)CN2C2CCN(C(=O)Cc3c[nH]c4ccccc34)CC2)c1	u
59	COC(=O)/C=C\C(=O)OC	11%
60	COc1ccc(CCC(=O)N2CCCCCC2CN2CCC(OC)CC2)cc1 (stereo unspecified)	i

A second format for some results above:
48) CCCCC(=O)Nc1cccc(-c2nc3ccccc3s2)c1
  nsP2pro inh = -16%
49) Nc1ccc(NC(=O)c2cccc(C(=O)Nc3ccc(N)cc3Cl)c2)c(Cl)c1
  nsP2pro inh = -15%
50) Cc1cc(C)nc(NC(=S)N2CCN(c3nccc4ccccc34)CC2)c1
  nsP2pro inh = -7%

Later entries
No.	SMILES	nsP2pro inh
61	C=C[C@H]1CN2CC[C@H]1C[C@@H]2CNC(=O)CC(C)(C)C	i
62	COc1ccc(-c2nc3ccccc3c(=O)n2Cc2ccco2)cc1COc1c(C)cccc1C	-13%
63	Cn1cc(-c2cc(=O)c3ccnc(NCc4ccc(F)cc4)c3o2)cn1	-24%[39.2 µM]
64	C=CC1=C(C(=O)O)N2C(=O)[C@@H](NC(=O)/C(=N\OCC(=O)O)c3csc(N)n3)[C@H]2SC1	u
65	O=S(=O)(Cc1cccc(Cl)c1)NCCc1noc(-c2ccccc2)n1	i
66	CC1=C2C(=O)C=C(CO[C@@H]3O[C@H](CO)[C@@H](O)[C@H](O)[C@H]3O)[C@@H]2[C@H]2OC(=O)[C@H](C)[C@@H]2CC1	-6%[10 µM]
67	Cc1ccc(CNC(=O)CN2C(=O)C3CCCCN3c3ccc(C(=O)N(C)C)cc32)cc1 (stereo unspecified)	-22%
68	COc1cccc(CN2CCC(n3cc[nH]c3=O)CC2)c1	-5%[39.2 µM]
69	COc1cccc(-n2c(=O)c3sccc3n(Cc3cc(=O)n4cc(Cl)ccc4n3)c2=O)c1	-8%
70	CN(Cc1cccc(C(F)(F)F)c1)C(=O)CC1CCCC1	-6%[39.2 µM]
71	N#Cc1nc(Nc2cccc(Cl)c2)c2ncn(C3CCCC3)c2n1	i
72	Cc1cccc(NS(=O)(=O)c2ccc3c(c2)C(C)(C)C(=O)N3C)c1	-9%
73	Oc1ccc(COC2CCN(Cc3ccccc3)C2)c2cccnc12 (stereo unspecified)	i
74	Cc1c(-c2cnccn2)ssc1=S	5µM*!
75	CCC(C)CC(C)CCCCCCCCC(=O)N[C@H]1C[C@@H](O)[C@@H](NCCN)NC(=O)[C@@H]2[C@@H](O)CCN2C(=O)[C@H]([C@H](O)CCN)NC(=O)[C@H]([C@@H](O)[C@H](O)c2ccc(O)cc2)NC(=O)[C@@H]2C[C@@H](O)CN2C(=O)[C@H]([C@@H](C)O)NC1=O (stereo partly specified)	165%[activator][10 µM]
76	O=C(Cc1ccccn1)N1CCCC(C(=O)N2CCC(N3CCCC3=O)CC2)C1 (stereo unspecified)	-8%
77	CN(C)c1ccc(CNC(=O)C2CCN(c3nnc(-n4cccc4)s3)CC2)cc1	-33%
78	CNC(=O)c1cc(Oc2ccc(NC(=O)Nc3ccc(Cl)c(C(F)(F)F)c3)cc2)ccn1	71%&-4%[activator]
79	CN(C)CC[C@H](CSc1ccccc1)Nc1ccc(S(=O)(=O)NC(=O)c2ccc(N3CCN(Cc4ccccc4-c4ccc(Cl)cc4)CC3)cc2)cc1[N+](=O)[O-]	34%
80	CC1(CCC(=O)O)C(=O)C=CC23CC4CC(OC4(C)C2O)C13 (stereo unspecified)	u
81	CC(C)=CC1C[C@](C)(O)[C@@H]2[C@H]3CCC4[C@@]5(C)CC[C@H](O[C@@H]6OC[C@H](O)[C@H](O[C@@H]7O[C@H](CO[C@@H]8O[C@H](CO)[C@@H](O)[C@H](O)[C@H]8O)[C@@H](O)[C@H](O)[C@H]7O)[C@H]6O[C@@H]6O[C@@H](C)[C@H](O)[C@@H](O)[C@H]6O)C(C)(C)[C@@H]5CC[C@@]4(C)[C@@]34CO[C@@]2(C4)O1 (stereo partly specified)	-11%[5.1 µM]
82	CCOc1ccc(CCNC(=O)Cc2ccccc2)cc1OCC	i
83	CC(=O)c1ccc(N2CCN(S(=O)(=O)c3ccc4c(c3)n(C)c(=O)n4C)CC2)cc1	3%
84	Cc1oc(C)c2c(=O)cc(-c3ccc4c(c3)OCO4)cc(OC(=O)c3ccccc3Cl)c12	u
85	O=C(O)/C=C(\CC(=O)O)C(=O)O	-22%&0%
86	COC1=C(OC)C(=O)C(CCCCCCCCCCO)=C(C)C1=O	-14%
87	c1c[nH]c(CNc2ncnc3ccc(-c4ccoc4)cc23)n1	-1%
88	O=C(CC1CCOC2(CCN(Cc3cccs3)CC2)C1)NC1CC1 (stereo unspecified)	-1%
89	COc1ccc(C2=Nn3c(nnc3-c3ccccc3OC)SC2)cc1OCC1CC1	i
90	FC(F)(F)c1ccccc1-c1nc(NCc2ccc(-c3ccc4ccccc4c3)cc2)c2ccccc2n1	-13%
91	COC(=O)CC[C@@H]1N=C(c2ccccn2)c2cc(Br)ccc2-n2c(C)cnc21	-1%
92	CC1CCCN1C(=O)c1cc(-c2cnn(C(C)C)c2)nc2cc(F)ccc12 (stereo unspecified)	i
93	Cc1nc(N2CCOCC2)c2c(C(=O)N(C)c3ccccc3)c(C)oc2n1	-10%
94	O=C(Nc1ccc(S(=O)(=O)Nc2nccs2)cc1)c1cccc2ccccc12	-8%
95	COc1ccccc1OCCn1c(C(C)Oc2ccccc2)nc2ccccc21 (stereo unspecified)	-8%
96	CC1=C(C(=O)Nc2cc(Cl)ccc2C)C(c2cccs2)n2ncnc2N1 (stereo unspecified)	-26%
97	O=C(c1ccncc1)N1CC(Oc2ccc(-c3noc(-c4ccccc4)n3)cc2)C1	i
98	COc1cc(Cl)c(C)cc1NC(=O)CSCc1nc(-c2ccc(OC)c(OC)c2)no1	-15%
99	O=C(c1ccc2cc[nH]c2c1)N1CCCC(Cc2noc(-c3ccccn3)n2)C1 (stereo unspecified)	-7%
100	CCN(CC)CCNC(=O)c1ccc(CSc2nc3ccncc3n2Cc2cccc(F)c2)cc1	52%[activator]
101	Cc1ccccc1Cn1c(SCc2ccc(C(=O)N3CCCCC3)cc2)nc2ccncc21	9%
102	O=C(CNC(=O)c1ccccc1)N[C@H](C(=O)Nc1cc(C(F)(F)F)ccc1Cl)c1ccccc1	-4%
103	CCOc1ccccc1NC(=O)Cn1c(=O)n(Cc2ccc(OC)cc2)c(=O)c2oc3ccccc3c21	-11%
104	COc1ncccc1-c1cc(-c2c(C)noc2C)c2cncn2c1	i
105	CC[C@@H]1/C=C(\C)C[C@H](C)C[C@H](OC)[C@H]2O[C@@](O)(C(=O)C(=O)N3CCCC[C@H]3C(=O)O[C@H](/C(C)=C/[C@@H]3CC[C@H](Cl)[C@H](OC)C3)[C@H](C)[C@@H](O)CC1=O)[C@H](C)C[C@@H]2OC	-27%
106	Cc1cnc(NC(=O)c2ccc(-c3cccc([N+](=O)[O-])c3)o2)s1	-5%

Screens: PubChem BioAssay, National Center for Advancing Translational Sciences (NCATS)
